From PubChem
miR-21 FLuc: raises the signal of a miR-21 reporter | Potency, µM (series often up to 38.3 µM), for the others: at the highest dose reporter change, positive = more light | 340,000 tested, under 10 active | HeLa miR-21 FLuc reporter, luciferase, 48 h; active = well fitted rising curve with a large enough effect; inconclusive = small, poorly fitted or top-dose-only effect; inactive = no such curve, though single readings can be large or run the other way;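 further: % of control where 0% means no effect; miR-21 action dims this reporter so a rising signal means less miR-21 action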
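HeLa cells endogenously expressing miR-21, stably carrying CMV-driven firefly luciferase with a downstream miR-21 binding site, 2000 cells/well. Titrations up to approximately 40 uM, 48 hours; luciferase luminescence read.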
Rango release inh: prevents RanGTP from dissociating the Rango-importin beta complex. O95149+P62826. Biochemical FRET Rango-importin beta, RanGTP-induced dissociation. Potency, µM (highest dose often 46.1 µM), inactives show at the top dose activity change, negative = inhibition. 340,000 tested, 0.071% active. AID 540253; active means falling FRET ratio curve, often poorly fitted, with flat reads before Ran was added; inconclusive means other falling curves, or compound fluorescence or quenching; inactive means flat or rising ratio curve;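 further: potency means the concentration at half of the fitted maximal effect; % of control where 0% means no effect; nearly all actives have a fitted effect of over 45% in size; -100% = wells without RanGTP and RCC1; the record marks most hits as doubtful in a second field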
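FRET read at 45 min, room temperature: inhibitors block the CFP/YFP signal rise when RanGTP (0.6 uM Ran, 2 mM GTP, 0.2 uM RCC1) frees Rango (0.1 uM) from importin beta (0.25 uM). Pre-read after 5 min compound exposure flags interference.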
Rango-impB inh: Rango-importin beta binding inhibition | Rango CFP/YFP FRET sensor + importin beta, 45 min | Potency, µM (top dose mostly 92.2 µM), without a hit: at the top dose inhibition of complex formation | Q14974 | AID 540263 | 340,000 tested, 0.031% active; active = rising FRET ratio curve, often small or poorly fitted; inconclusive = mostly compound fluorescence or quenching in the first reads; inactive = flat curves in all reads;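 further: potency means the concentration at half of the fitted maximal effect; 0% = DMSO wells and 100% = buffer wells lacking importin beta; nearly all actives have a fitted effect of over 15% in size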
Target sequence (Q14974 whole entry, looked up): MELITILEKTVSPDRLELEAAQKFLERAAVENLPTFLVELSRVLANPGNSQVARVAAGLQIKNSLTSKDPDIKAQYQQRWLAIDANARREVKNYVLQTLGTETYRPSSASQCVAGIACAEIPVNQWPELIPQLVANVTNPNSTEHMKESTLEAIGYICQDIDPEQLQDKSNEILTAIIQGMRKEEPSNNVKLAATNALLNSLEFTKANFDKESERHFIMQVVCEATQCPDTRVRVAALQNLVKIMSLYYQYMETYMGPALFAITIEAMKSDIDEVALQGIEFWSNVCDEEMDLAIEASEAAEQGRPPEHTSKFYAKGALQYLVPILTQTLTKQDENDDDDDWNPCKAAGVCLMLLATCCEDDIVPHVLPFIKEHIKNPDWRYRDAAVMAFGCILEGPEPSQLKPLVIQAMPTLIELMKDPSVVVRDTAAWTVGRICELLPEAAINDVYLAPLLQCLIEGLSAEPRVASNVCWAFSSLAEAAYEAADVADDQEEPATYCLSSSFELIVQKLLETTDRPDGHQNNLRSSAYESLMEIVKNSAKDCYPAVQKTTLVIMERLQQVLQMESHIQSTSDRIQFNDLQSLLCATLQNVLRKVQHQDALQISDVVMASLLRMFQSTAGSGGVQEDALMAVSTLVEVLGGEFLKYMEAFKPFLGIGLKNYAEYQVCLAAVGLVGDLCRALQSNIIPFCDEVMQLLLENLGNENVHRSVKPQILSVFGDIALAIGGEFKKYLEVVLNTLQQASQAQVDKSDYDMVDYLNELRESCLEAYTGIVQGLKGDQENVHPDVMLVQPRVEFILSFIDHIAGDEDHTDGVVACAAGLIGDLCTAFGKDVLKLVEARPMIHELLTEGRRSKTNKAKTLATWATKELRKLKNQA
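FRET biosensor Rango (snurportin 1 IBB between N-terminal EYFP and C-terminal Cerulean), 50 nM in PBS/1 mM DTT/0.02% Tween-20/0.1% BSA, preincubated 5 min RT with compound; 0.125 microM importin beta added, 45 min RT, CFP/YFP FRET ratio read.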
GLA inh pH 4.5: blocks human alpha-galactosidase A at pH 4.5; P06280; purified enzyme, 4-MU-alpha-Gal fluorescence, pH 4.5; activity change, negative = inhibition, % at 105 µM; 230,000 tested, under 10 active; inconclusive = small, poorly fitted or top-dose-only inhibition, or a rising curve; inactive = flat fitted curve, though single readings scatter; no compound was filed as active;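 further: 0% = full activity with enzyme and -100% = basal without enzyme; dose as in the result columns while the protocol names 77 µM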
The depositor's hits bear a star; ? = inconclusive; / = not tested or not shown; & = joins results of further samples. This is a subset, so the mix of outcomes need not match the whole.

Second line of a record – miR-21 FLuc | Rango release inh | Rango-impB inh | GLA inh pH 4.5
COc1ccc(NC(=O)CSCC(=O)N(C)CC(=O)Nc2ccc(Cl)c(C(F)(F)F)c2)cc1
→ / | 2% | -4.9% | /
CCCc1ccc(/C=C2\C(=O)c3ccccc3C(O)=C2C(=O)OCC)cc1
→ ? | / | / | 3
COc1ccc(NS(=O)(=O)c2ccc(NC(=O)c3ccc(N(C)S(C)(=O)=O)cc3)cc2)cc1
→ 24% | -2% | -3.2% | 0
O=C(OCC(=O)c1ccccc1Br)c1ccncc1
→ 1% | 8% | 0.0% | 0
O=C(/C=C/c1cccc([N+](=O)[O-])c1)N(c1ccccn1)c1ccccn1
→ 5% | 2% | 0.7% | 2
O=C(NC(=S)NCCc1ccc(Cl)cc1)c1ccco1
→ -9% | -5% | -0.2% | -8
Cc1ccc(S(=O)(=O)N2CCCCC2)cc1NC(=S)NC(=O)c1ccco1
→ 1% | -4% | -2.5% | -3
Cc1noc(C)c1S(=O)(=O)N1CCCC(C(=O)Nc2nccs2)C1 (configuration not stated)
→ 2% | 0% | 3.1% | 0
O=C(NC1CCCCC1)c1ccc(-c2ccccc2F)o1
→ / | -11% | -0.3% | /
CCOc1ccc(Br)cc1/C=N/NC(=O)c1ccncc1
→ 2% | -1% | 0.4% | 3
COC(=O)C1(c2ccccc2)NC(c2cccs2)C2C(=O)N(C)C(=O)C21 (configuration not stated)
→ 0% | 31% | 5.3% | 3
COc1cc2c(c(OC)c1OC)C(c1ccc(C)cc1)CC(=O)O2 (configuration not stated)
→ / | 19% | 7.4% | 2
CCOC(=O)C1(Cc2cccc(F)c2)CCN(Cc2nc(CC)[nH]c2C)CC1
→ 8% | ? | ? | -5
Cc1ccc2cc(/C=N/NC(=O)c3ccc(F)cc3)c(Cl)nc2c1
→ 0% | -7% | 0.3% | 4
CN(C)CCCn1c(NCc2ccc3c(c2)OCO3)nc2ccccc21
→ -18% | 2% | -1.8% | -4
O=C(Nc1cccc2ccccc12)N1CCN(c2ccc(F)cc2)CC1
→ 1% | -17% | 1.1% | 1
COC(=O)C1=C(C)N(Cc2ccc(OC)c(OC)c2)C(=O)C1
→ -3% | ? | -1.8% | 3
Cc1nc(NC(=O)c2cccc(Cl)c2)sc1-c1csc(Nc2cccc(Cl)c2)n1
→ -10% | / | / | 4
N#CCSc1nc2ccccc2c(=O)n1CCCC(=O)NCc1ccco1
→ 0% | 6% | 2.5% | -6
CCOc1ccc(CCNC(=O)Cc2ccc(NC3=NC4CS(=O)(=O)CC4S3)cc2)cc1OCC (configuration not stated)
→ 0% | 5% | 2.4% | /

Fetched by structure from above:
Second line of a record – miR-21 FLuc | Rango release inh | Rango-impB inh | GLA inh pH 4.5
N#CCSc1nc2ccccc2c(=O)n1CCCC(=O)NCc1ccco1
→ 0% | 6% | 2.5% | -6
O=C(NC1CCCCC1)c1ccc(-c2ccccc2F)o1
→ / | -11% | -0.3% | /

(more compounds)
Second line of a record – miR-21 FLuc | Rango release inh | Rango-impB inh | GLA inh pH 4.5
Cc1cc(C)n2nc(C(=O)N/N=C/C=C/c3ccccc3)nc2n1
→ 2% | -12% | 2.4% | -5
C/C(=N\NC(N)=S)c1cccnc1
→ -2% | -7% | 4.7% | -3
COc1cc(CNCCCN2CCOCC2)c(Br)cc1OC(C)C
→ -5% | -2% | -1.2% | /
O=C(NC(=S)N1CCCCC1c1cccnc1)c1ccccc1 (configuration not stated)
→ -8% | 11% | 1.7% | /
CCOC(=O)c1ccc(COC(=O)CNC(=O)CNC(=O)c2ccc(OC)cc2)o1
→ -6% | -13% | 0.7% | 5
COc1ccc(-n2nnnc2SCC(=O)Nc2nnn(C)n2)cc1
→ -3% | -3% | 3.0% | 3
O=C1c2ccccc2C(Nc2ccc(F)cc2F)N1CCN1CCOCC1 (configuration not stated)
→ -12% | 1% | -0.1% | 8
CC(=O)OCC1OC(c2ccccc2)C(OC(C)=O)C(OC(C)=O)C1OC(C)=O (configuration not stated)
→ 2% | 10% | -1.0% | -3
CCOC(=O)C(=O)C1C(=O)Nc2ccccc21 (configuration not stated)
→ -1% | -11% | -0.1% | -12
CC(=O)OC1CC[C@@]2(C)C(CCC3C2CC(=O)[C@@]2(C)C3CC3CC(C)=CC(=O)C32)C1 (some centres not stated)
→ 1% | 28% | ? | 0
O=[N+]([O-])c1cccc(C2Nc3cccc4cccc(c34)N2)c1
→ -1% | 6% | 0.6% | 1
COCCn1cnc2c1c(=O)[nH]c(=O)n2Cc1ccccc1
→ 3% | -4% | -0.5% | /
C=CCC(C(=O)OC)(C(=O)OC)c1ccccc1[N+](=O)[O-]
→ -3% | 2% | -0.3% | 6
CC(=O)c1cccc(NC(=O)CC2S/C(=N/N=C/c3ccccc3)NC2=O)c1 (configuration not stated)
→ 3% | -14% | 2.7% | 0
O=C(CNC(=O)Cn1ccc2ccccc2c1=O)NCCCN1CCCCCC1
→ 1% | -21% | -0.8% | 0
Cc1ccc(NC(=O)CC2S/C(=N/N=C3/NC(=O)CS3)NC2=O)cc1 (configuration not stated)
→ -3% | -22% | 0.6% | 6
CCc1c(C)nc2c(-c3ccccc3)c(C)[nH]n2c1=O
→ -1% | 10% | 0.5% | /
CCOc1ccc(-n2nc3ccc(NC(=O)c4ccc5c(c4)OCCO5)cc3n2)cc1
→ -2% | -10% | 1.2% | 10
Cc1ccc(NC(=O)CSc2nnc(-c3cc(C)on3)o2)cc1
→ -15% | -9% | 0.4% | /
CC(C)(C)OC(=O)C[C@@H]1C/C=C\C[C@@H](CC(=O)N[C@H](CO)Cc2ccccc2)C(=O)N2CCC[C@H]2COC1=O
→ / | 1% | 1.8% | /
COc1cccc(NC(=O)CCC2CCN(C(=O)C3CC=CCC3)CC2)c1 (configuration not stated)
→ 7% | 18% | -1.4% | /
CC(C)C[C@H]1CN=C(Nc2ccccc2)N1CCCC1CCCC1
→ 26% | -5% | 0.1% | /
C[C@@H](C(=O)Nc1ccc2c(c1)OCCO2)n1nnc2ccccc2c1=O
→ -42% | 17% | -0.7% | /
CCCCn1c(N)c(N(CC(C)C)C(=O)c2cc(C)nc3ccccc23)c(=O)[nH]c1=O
→ / | 2% | 2.2% | /
O=C(NC(=S)N(CC1CCC1)CC1CCCO1)c1cccc([N+](=O)[O-])c1 (configuration not stated)
→ 1% | 34% | -3.3% | 3
COCCCn1nnnc1SCC(=O)N1CCN(C(=O)c2ccco2)CC1
→ 0% | 12% | 0.5% | 8
COCC(=O)N1CCC2CC1c1c(-c3ccc(C(F)(F)F)cc3)cccc12 (configuration not stated)
→ / | / | ? | /
CCOc1ccccc1NC(=O)C(NCCN(C)C)c1ccccc1 (configuration not stated)
→ 4% | -1% | 2.0% | 2
COc1cc(S(=O)(=O)NCc2ccccc2)ccc1F
→ -5% | -12% | 1.0% | -1
Cn1c(SCC#N)nnc1-c1ccc2c(c1)OCO2
→ 2% | -3% | 3.0% | -2
Cc1ccc(-c2nn(C)c(=O)c3ccccc23)cc1CNC(=O)/C=C/c1ccccc1
→ 12% | 11% | 1.1% | -11
CCN(CC)S(=O)(=O)c1ccc(OC(C)C)c(NC(=O)C2=COCCO2)c1
→ / | -10% | 4.2% | /
O=S(=O)(NC1=NCCCCC1)c1ccc(F)cc1
→ 3% | 4% | 0.2% | -3
O=C(O)C1CCC(=O)N1Cc1ccc(F)cc1 (configuration not stated)
→ 0% | -5% | 5.5% | 4
C=CCSC1=NNC(c2ccc(C(C)(C)C)cc2)=NN1
→ -58% | 23% | 3.0% | 1
Cc1c(N=C/C=C/c2ccccc2)cnn1C
→ -1% | 2% | 0.4% | 5
COc1ccc(C(c2nnnn2C(C)(C)C)N2CCN(c3nc4ccccc4s3)CC2)cc1 (configuration not stated)
→ 8% | -16% | 1.4% | -9
O=C(COC(=O)CCC(=O)c1cccs1)Nc1ncc(Cl)cc1Cl
→ -3% | 2% | 0.6% | 5
CSc1ncc(CN2CCN(CC=C(C)C)C(CCO)C2)cn1 (configuration not stated)
→ -1% | 7% | 0.0% | 2
COc1ccc(CCNC(=O)c2cc3c(=O)n4cccc(C)c4nc3n(Cc3ccco3)c2=N)cc1OC
→ 20% | ? | ? | /

Record cards, as listed above:
COCC(=O)N1CCC2CC1c1c(-c3ccc(C(F)(F)F)cc3)cccc12 (configuration not stated) across the screens: miR-21 FLuc: /; Rango release inh: /; Rango-impB inh: ?; GLA inh pH 4.5: /
Cc1ccc(-c2nn(C)c(=O)c3ccccc23)cc1CNC(=O)/C=C/c1ccccc1 across the screens: miR-21 FLuc: 12%; Rango release inh: 11%; Rango-impB inh: 1.1%; GLA inh pH 4.5: -11
O=C(O)C1CCC(=O)N1Cc1ccc(F)cc1 (configuration not stated) across the screens: miR-21 FLuc: 0%; Rango release inh: -5%; Rango-impB inh: 5.5%; GLA inh pH 4.5: 4

(further entries)
Second line of a record – miR-21 FLuc | Rango release inh | Rango-impB inh | GLA inh pH 4.5
Cc1c(C(=O)N2CC3(CC(c4cccc(NC(=O)[C@H]5CCC(=O)N5)c4)=NO3)C[C@@H]2C(N)=O)cc([N+](=O)[O-])cc1[N+](=O)[O-] (some centres not stated)
→ -3% | -16% | 1.9% | 5
CCCCc1nnc2c(N(C)S(=O)(=O)c3ccccc3)nc3ccccc3n12
→ -29% | 3% | 2.1% | -7
Cc1ccc(-c2nn(Cc3ccccc3)cc2C(=O)NCC2CCCO2)cc1 (configuration not stated)
→ / | -7% | 2.2% | /
N#CC1=C(N)Oc2cc(N)ccc2C1c1ccccc1Cl (configuration not stated)
→ 22% | ? | ? | /
Cc1ccc(-n2nc3c(=O)n(C(C)C(=O)NCc4ccc(Cl)cc4)nc(C)c3c2C)cc1 (configuration not stated)
→ 0% | -17% | -4.2% | /
Cc1ccc(-c2nn(-c3ccccc3)cc2C(N)=O)o1
→ -13% | 4% | -0.1% | -9
COc1ccc(OC)c(NC(=O)CSc2nnnn2-c2ccccc2F)c1
→ -12% | 3% | 0.4% | 2
CC1=C[C@H](C)[C@H](c2c(F)cccc2Cl)CC1=O
→ -1% | 1% | -1.8% | /
Cc1cc(NC(=O)NCc2ccco2)ccc1NC(=O)NCc1ccco1
→ / | 11% | 0.4% | /
O=C(CSc1nnc(CNC(=O)c2ccco2)o1)Nc1cccc(Cl)c1
→ -2% | -20% | 0.3% | /
CC(C)CCc1noc(CN(C)CCC2CCOCC2)n1
→ -3% | -5% | -0.3% | -2
Cn1c(CCNC(=O)C(C)(C)C)nc2ccccc21
→ -9% | 0% | 0.0% | 7
CC(C)N1C(=O)CCC1C(=O)O (configuration not stated)
→ 0% | 14% | -1.2% | -4
O=C(c1cc2cc(Cl)ccc2o1)N1CCCC1
→ -50% | -7% | 1.0% | /
COc1cc(C(=O)N2CCN(C(=O)c3ccco3)CC2)c([N+](=O)[O-])cc1OC
→ 0% | 8% | 4.1% | 1
CCc1cccc(C)c1NC(=O)CCCn1c(=O)c2cccn2c2cccnc21
→ -6%&-6% | 5% | -0.9% | /
COc1ccc(N2CCN(Cc3nnnn3C3CCCCC3)CC2)cc1
→ 0% | 5% | 0.4% | 2
O=C(Nc1cccc(S(=O)(=O)N2CCCCC2)c1)[C@@H]1CCCN1S(=O)(=O)c1ccccc1C(F)(F)F
→ / | -7% | -0.8% | /
CC(C)NC1CCC(Nc2ccnc3cc(Cl)ccc23)CC1 (configuration not stated)
→ / | 10% | -1.6% | /
CC(O)Cc1cn([C@@H](CCCCNC(=O)OC(C)(C)C)C(=O)N2CCN(C(=O)OC(C)(C)C)CC2)nn1 (some centres not stated)
→ -2% | 40% | 4.4% | 1
Cc1cc(C)c(S(=O)(=O)c2ccccc2)c(=O)[nH]1
→ 2% | 0% | -2.0% | /
CC1(C(=O)NC2CCCC2)CCC(=O)N1Cc1cccs1 (configuration not stated)
→ -3% | 0% | -1.0% | 7
O=C(Nc1ccc(NC(=O)C2CC2)nc1)c1ccncc1
→ -4% | -16% | 0.6% | 2
CCOC(=O)NNc1ccccc1
→ 12% | 1% | 8.5% | 6
O=C(NCc1ccccn1)C1CCCN(S(=O)(=O)c2cc(Cl)ccc2Cl)C1 (configuration not stated)
→ / | -3% | 1.2% | /
C#CCOc1ccc(/C=C2/C(=O)ON=C2C)cc1Cl
→ 4% | 14% | 7.8% | /
O=C(Nc1cccc(C(F)(F)F)c1)c1cnccn1
→ -13% | 3% | -0.4% | 7
